# Screening results as filed in PubChem.
# KCNQ2 pot – KCNQ2 (rat) channel potentiation | B-score at 10 µM | CHO-K1 KCNQ2, FluxOR thallium flux fluorescence; hits give high values | 310,000 compounds, 0.54% hits | AID 2239;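 active = fluorescence ratio B-score at least 3 SD of library B-scores, with initial fluorescence B-score within 3 SD, cut at about 5.3 in these data; same plate scores as AID 2156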;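 note: B-score of peak minus minimum over baseline fluorescence ratio after K+ and Tl+ stimulus; positive B-score means potentiation of KCNQ2 with more thallium influx and brighter signal; only the inactives scoring about 0 or higher are listed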
# Target sequence (O88943 whole entry, looked up): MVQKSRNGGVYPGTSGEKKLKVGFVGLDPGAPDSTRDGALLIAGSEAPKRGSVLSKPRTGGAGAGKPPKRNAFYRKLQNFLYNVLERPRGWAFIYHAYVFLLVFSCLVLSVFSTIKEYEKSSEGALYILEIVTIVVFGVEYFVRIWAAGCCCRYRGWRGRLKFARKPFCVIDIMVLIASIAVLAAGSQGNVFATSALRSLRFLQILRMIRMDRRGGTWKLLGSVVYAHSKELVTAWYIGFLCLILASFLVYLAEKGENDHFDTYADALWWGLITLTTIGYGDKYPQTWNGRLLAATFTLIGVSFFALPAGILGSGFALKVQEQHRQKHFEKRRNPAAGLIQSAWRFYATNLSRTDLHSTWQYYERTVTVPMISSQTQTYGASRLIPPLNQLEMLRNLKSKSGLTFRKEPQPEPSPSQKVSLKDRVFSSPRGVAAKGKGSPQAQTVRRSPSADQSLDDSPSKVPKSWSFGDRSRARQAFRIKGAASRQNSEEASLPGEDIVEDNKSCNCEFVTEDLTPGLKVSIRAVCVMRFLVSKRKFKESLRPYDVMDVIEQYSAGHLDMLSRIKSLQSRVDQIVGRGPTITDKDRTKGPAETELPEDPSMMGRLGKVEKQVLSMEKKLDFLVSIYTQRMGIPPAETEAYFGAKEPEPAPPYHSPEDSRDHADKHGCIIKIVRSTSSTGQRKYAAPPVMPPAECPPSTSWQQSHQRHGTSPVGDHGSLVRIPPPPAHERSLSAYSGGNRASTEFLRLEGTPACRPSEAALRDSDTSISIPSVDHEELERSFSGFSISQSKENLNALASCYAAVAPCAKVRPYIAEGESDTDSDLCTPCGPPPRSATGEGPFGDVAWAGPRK
# KCNQ2 pot baseline – further read-out of KCNQ2 pot, marked with its call; B-score; compound at 10 µM; measured here: initial fluorescence intensity artifact check;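 brightness before thallium and not channel activity; 0 = typical well and far values either way flag optical interference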
# An asterisk follows results filed as active; . = no result given. These rows are one share of the data, so the mix of outcomes need not match the whole.
mol	KCNQ2 pot	KCNQ2 pot baseline
CCN(CC)CCCn1c2c(c(SCC(=O)Nc3cccc(C(C)=O)c3)nc1=O)CCC2	2.1	1.9
CSc1ccc(CNC(=O)C(C)n2nc(C)c3c(C)n(-c4ccccc4)nc3c2=O)cc1 (stereo not given)	0.89	-1.4
Cc1cc(SCC(=O)c2cccs2)n2nc(C)c(-c3ccccc3)c2n1	6*	0.06*
COc1ccc(N2CCN(C(=O)CNS(=O)(=O)c3ccc(C)c(C)c3)CC2)cc1	0.19	-3
CN(C)CCN(C(=O)CCc1ccccc1)c1nc2c(F)cc(F)cc2s1	1.2	-0.13
c1ccc2sc(NN=C3CCCC3)nc2c1	0.32	-1.1
Cc1ccc(-c2nnn(C/C(N)=N/O)n2)cc1	0.26	0.05
CCOc1cc(N2CCOCC2)c(OCC)cc1NS(=O)(=O)c1ccc(Cl)s1	0.1	-1.3

# (next part)
mol	KCNQ2 pot	KCNQ2 pot baseline
CC(=O)Nc1ccc(/C=N/N2C(C)CCCC2C)cc1 (stereo not given)	0.4	2.1
Cc1ccccc1-n1c(=S)[nH]c2nc3c(cc2c1=O)COC(C)(C)C3	0.66	-0.67
COc1ccc(C(=O)N2CCCC(Nc3ccc(F)cc3)C2)c(OC)c1 (stereo not given)	0.56	0.22
Cc1c(C(=O)NCCN2CCOCC2)oc2ccc(Br)cc12	0.31	0.67
N/C(COc1ccccc1)=N\NS(=O)(=O)c1ccccc1	0.54	-2.4
Cc1ccc(S(=O)(=O)c2nc(S(C)(=O)=O)sc2NCc2ccc3c(c2)OCO3)cc1	0.63	-1.2
N#CCN(C(=O)COC(=O)C1CC2CCCC(C1)C2=O)c1ccccc1 (stereo not given)	2.1	-0.31
CCCCC(CC)Cn1c(O)c(/C=C2\C=NN=C2c2ccccc2)sc1=S (stereo not given)	0.67	-0.51

# Next section:
mol	KCNQ2 pot	KCNQ2 pot baseline
CC1CCCN(S(=O)(=O)c2ccc(NC(=O)CN3CCCCC3)cc2)C1 (stereo not given)	1.7	-1.5
CCOc1cc(C2C(C#N)=C(N)Oc3n[nH]c(CC)c32)ccc1OCCN1CCOCC1 (stereo not given)	0.02	-0.43
O=C(O)c1cc(N/N=C/c2ccc(-c3ccccc3)cc2)ccc1Cl	2.3	-1.1
O=C1CCCN1S(=O)(=O)c1ccccc1	0.6	0.01
CCCCCCn1cc(C(=O)O)c(=O)c2cc(F)c(N3CCCCC3)cc21	0.3	-2
Cc1ccc(O)c(CC(C)C)n1	0.35	1.8
CCOC(=O)CSc1nc(CC)nc2ccccc12	1.2	0.31
Cc1ccc(-n2cc(CNCCCN3CCCC3=O)c(-c3ccc(F)cc3)n2)cc1	0.05	0.11

# Carrying on.
mol	KCNQ2 pot	KCNQ2 pot baseline
C/C(=N\NC(=O)CN(c1ccc(Oc2ccccc2)cc1)S(C)(=O)=O)C(C)(C)C	0.09	0.09
CC(=O)N(Cc1cc2ccccc2[nH]c1=O)c1ccc(C)cc1	1.1	-0.39
COc1ccc(S(=O)(=O)N2c3cc(C)ccc3OCC2C(C)(C)C)cc1 (stereo not given)	-5.5	.
CCOC(=O)C1(CCc2ccccc2)CCN(C(=O)c2cccc(C)n2)CC1	0.11	0.01
O=S(=O)(Nc1ncccn1)c1ccc(NC(=S)Nc2ccccc2Cl)cc1	0.05	-1.7
COc1ccc(OCc2cc(C(=O)O)c(C)o2)cc1	0.62	-0.52
C=C(C)Cn1c(SCC(=O)O)nc2c1c(=O)[nH]c(=O)n2C	0.17	-1
CC(C)n1nnnc1SCC(=O)Nc1ccc2c(c1)OCO2	0.19	-1.8

# Continued:
mol	KCNQ2 pot	KCNQ2 pot baseline
CCCCCOC(=O)C1=C(C)Nc2nnnn2C1c1ccc(OC)c(OC)c1OC (stereo not given)	0.05	-1.9
Cn1c(COc2ccccc2)nnc1SCC(=O)c1cccc([N+](=O)[O-])c1	0.85	-0.79
CC(=O)N1CCC(N2CCN(Cc3ccc(C)cc3)C(CCO)C2)CC1 (stereo not given)	0.43	0.01
Cc1cccc(NC(=O)CN2C(=O)N/C(=C/c3ccc(C)s3)C2=O)c1	2.1	0.88
C=CCNC(=O)C1CC(=O)N(c2ccc(Br)cc2)C1 (stereo not given)	2	0.18
COc1cc(CNCCNC(=O)c2cccs2)cc(OC)c1OC	0.34	-0.35
O=C(CSc1nc(-c2ccccc2)c(-c2ccccc2)o1)Nc1nncs1	1.1	-2
CCCn1nnnc1NCc1ccc(C(C)C)cc1	0.6	-0.47

# An excerpt from above in order of the KCNQ2 pot baseline value, falling.
mol	KCNQ2 pot	KCNQ2 pot baseline
CC(=O)N1CCC(N2CCN(Cc3ccc(C)cc3)C(CCO)C2)CC1 (stereo not given)	0.43	0.01
COc1cc(CNCCNC(=O)c2cccs2)cc(OC)c1OC	0.34	-0.35
CCCn1nnnc1NCc1ccc(C(C)C)cc1	0.6	-0.47
Cn1c(COc2ccccc2)nnc1SCC(=O)c1cccc([N+](=O)[O-])c1	0.85	-0.79

# Next section.
mol	KCNQ2 pot	KCNQ2 pot baseline
Cc1cc(C)cc(OCc2ccc(C(=O)NC3CCOC3=O)o2)c1 (stereo not given)	0.39	-0.01
COc1cc(NS(=O)(=O)c2ccc(NS(=O)(=O)c3ccc(NC(C)=O)cc3)cc2)nc(OC)n1	1.3	-0.87
COc1ccc(/C(CC2(O)C(=O)Nc3ccccc32)=N\O)cc1 (stereo not given)	1	0.16
COC(=O)CCNC(=O)c1ccc2nc(Cc3ccc(OC)c(OC)c3)oc2c1	1.8	-0.68
Cc1cccc2c3c([nH]c12)CCN(C)C3	0.72	0
CCC(C)NC(=O)Cn1cccc1C(=O)c1ccccc1 (stereo not given)	1.1	-0.08
COc1ccc(NC(=O)CN(C)C(C)C(=O)NC(=O)NC2CCCCC2)cc1 (stereo not given)	0.14	-0.12
CCCCNC(=S)N/N=C/C1=CCC2CC1C2(C)C (stereo not given)	5.4*	0.04*

# Grouped by structure, the entries above with a tert-butyl group.
mol	KCNQ2 pot	KCNQ2 pot baseline
C/C(=N\NC(=O)CN(c1ccc(Oc2ccccc2)cc1)S(C)(=O)=O)C(C)(C)C	0.09	0.09
COc1ccc(S(=O)(=O)N2c3cc(C)ccc3OCC2C(C)(C)C)cc1 (stereo not given)	-5.5	.

# (next part)
mol	KCNQ2 pot	KCNQ2 pot baseline
COC(=O)Cc1[nH]n(-c2nc3ccccc3s2)c(=O)c1C(C)=Nc1ccc(Cl)cc1	0.56	-1.2
CN(C)/C=N/c1ncc(C(=O)OC(C)(C)C)s1	0.39	-0.03
O=C1NC[C@@H](Cc2cccc3ccccc23)N(CCCCC2CCCCC2)C1=O	2.6	-1.3
CCCCOc1c(Br)cc(CNCCCN2CCOCC2)cc1OC	0.23	0.16
O=C(NC1CCCCC1)c1ccc(Br)o1	0.31	-0.74
N#Cc1ccccc1N=Cc1ccc(Br)cc1	0.69	-1.4
CCc1ccccc1OCC(=O)OCC(=O)N1CC(=O)Nc2ccccc21	0.68	-2.6
CCc1nc2ccccc2c(C(=O)OCC(=O)NCCCN2CCCC2=O)c1C	1.4	-0.19

# Following part:
mol | KCNQ2 pot | KCNQ2 pot baseline
CC(=O)N1N=C(c2cccs2)CC1c1cccs1 (stereo not given) | 0.33 | 0.01
O=C(Nc1ccccc1C(=O)N/N=C/c1ccc(F)cc1)c1ccccc1Br | 0.09 | -0.04
Cc1ccc(N2CC(C(=O)Nc3nnc(SCC(=O)N4CCOCC4)s3)CC2=O)cc1 (stereo not given) | 0.68 | -1.5
O=C(COC(=O)/C=C/c1ccccc1[N+](=O)[O-])NCC(F)(F)F | 0.79 | -0.35
CCN(CCCc1ccccc1)CCCc1ccccc1 | 2.3 | -1.2
CCNc1nc(N)nc(Oc2ccc(OCCOc3ccc(Cl)cc3Cl)nn2)n1 | 0.08 | -0.03
Cc1ccc[n+](C(C)C(=O)c2ccc(-c3ccccc3)cc2)c1 (stereo not given) | 1.4 | 3
COc1ccccc1CC(NC(C)=O)C(=O)NC1CCN(C(=O)Nc2cccc(F)c2)CC1 (stereo not given) | 0.04 | -2.7
Cc1c(Cl)cccc1NC(=O)NCc1ccncc1 | 0.19 | -0.51
COc1ccc2nc(SCC(=O)NC3CC3)c(C#N)cc2c1 | 0.81 | -5
CC(C)CC(=O)Nc1ccc(C(=O)CN2C(=O)NC3(CCOc4ccccc43)C2=O)cc1 (stereo not given) | 1 | 0.82
CCOCCCNC(=O)CCc1nnc2n(CCC(C)C)c(=O)c3ccccc3n12 | 2.1 | -2.7
COc1ccc(CN(C)C(=O)c2cc(S(=O)(=O)N3CCCCCC3)ccc2OC)cc1OC | 1.7 | -1.4
CCN(CC)S(=O)(=O)c1ccc2[nH]c(=O)cc(C(=O)NCC3CCCO3)c2c1 (stereo not given) | 0.27 | -0.75
CCN(CC)CCCNc1nc(C)cc(COC)c1C#N | 1.4 | -0.75
COc1ccc(CC(=O)NCCN2CCOCC2)cc1 | 0.22 | 0.85
Cc1cc(-c2cccnc2)c(C#N)c(SCC#N)n1 | 1.8 | -0.15
Cc1ccc(NC(=O)c2ccco2)cc1C | 0.02 | 1.3
COc1ccc(C2=CC3=C(Br)C(=O)C(C)(O)C(=O)C3=CO2)cc1 (stereo not given) | 2 | -0.54
S=c1nccc(-c2ccc3c(c2)CCO3)[nH]1 | 0.63 | 0
COc1nccnc1NS(=O)(=O)c1ccc(NC(=O)c2ccccc2Br)cc1 | 0.57 | 1.9
O=C(CCl)Nc1cc2[nH]c(=O)[nH]c2cc1Br | 0.55 | -0.69
CCOC(CCn1c(SCC(=O)NC2CCCC2)nc2ccccc2c1=O)OCC | 1.7 | -0.36
O=C(NCCCCc1ccccc1)C1CC(c2ccc([N+](=O)[O-])cc2)=NO1 (stereo not given) | 1.9 | -0.06
C/C(=N\NC(=O)CNc1cccc2ccccc12)c1ccc(Br)s1 | 0.14 | 0.09

# More structures.
mol | KCNQ2 pot | KCNQ2 pot baseline
Cc1cccc2nc(-c3cccc(NC(=O)c4ccc(Cl)cc4)c3)cn12 | 0.49 | -0.06
Cc1ccc(OCC(=O)Nc2ccc3c4c(cccc24)CC3)c(C)c1 | 0.85 | 1.7
COc1ccc(NC(=O)c2ccccc2N(Cc2ccccc2)S(C)(=O)=O)c(OC)c1 | 0.94 | -1.1
Cn1nc(C(=O)OCc2ccc(Br)cc2F)c2ccccc2c1=O | 0.21 | -0.99
O=C(O)CCC(=O)Nc1ccc(F)cc1 | 1.6 | 0.44
Cc1ccc(NC(=O)CN2C(=O)NC(Cc3c[nH]c4ccccc34)C2=O)cc1S(=O)(=O)N1CCCCC1 (stereo not given) | 1 | -0.77
COc1cc2[nH]c(=S)n(Cc3ccc(C)cc3)c(=O)c2cc1OC | 1 | -0.67
Cc1ccc2nc(CSc3nnc(-c4ccco4)n3-c3ccccc3)cc(=O)n2c1 | 3.6 | -0.95
O=C(NCc1ccc(Cl)c(Cl)c1)c1cccnc1 | 0.93 | 1
Cc1cc(C)n(-c2nc(N(C)C)nc(N(C)C)n2)n1 | 1.6 | 0.02
Cn1c(CN2CCOCC2)nc2cc(NC(=O)COc3ccccc3)ccc21 | 0.09 | 0.09
COc1cc2c(cc1OC)C(c1cccc(Cl)c1Cl)CC(=O)N2 (stereo not given) | 0.04 | 0.03
C=CCNC(=S)Nc1ccc(OC)c(S(=O)(=O)N2CCOCC2)c1 | 0.15 | 0.67
O=C(NCCCn1ccnc1)/C(=C\c1cccnc1)NC(=O)c1ccccc1Br | 0.67 | -0.65
CNc1nc(C)c([N+](=O)[O-])c(Nc2ccc(OC)cc2)n1 | 0.09 | -0.34
COc1ccc(N=c2oc3cc(O)ccc3cc2C(=O)NCC2CCCO2)c(OC)c1 (stereo not given) | 0.53 | 0.25
Cc1cnn2c(C3CC3)ccnc12 | 0.26 | 0.02
Cc1nc(C(F)(F)F)c(C(=O)NC(=O)Nc2ccc(OC(F)(F)F)cc2)s1 | 1.4 | -1.3
COC(=O)c1ccc(NC(=O)C23CCC(C)(C(=O)O2)C3(C)C)cc1 (stereo not given) | 1.4 | -1.6
CCc1nc(SCC(=O)N2CCCC2)c2ccccc2n1 | 0.95 | -0.36
Cc1nn(C(C)C(=O)N2CCc3ccccc32)c(C)c1[N+](=O)[O-] (stereo not given) | 0.01 | -0.81
COc1ccc(-c2cc(C(=O)Nc3c(C)n(C)n(-c4ccccc4)c3=O)c3ccccc3n2)cc1 | 2.2 | -0.26
CCC1Oc2ccc(C)cc2N(CC(=O)N(Cc2ccncc2)Cc2ccco2)C1=O (stereo not given) | 0.99 | -1.2
NNC(=O)C(Cc1ccc(O)cc1)N1Cc2ccccc2C1=O (stereo not given) | 0.41 | 0.6
CSc1ccccc1NC(=O)CN(c1ccccc1Br)S(C)(=O)=O | 0.01 | -0.32

# Following part.
mol | KCNQ2 pot | KCNQ2 pot baseline
O=C(O)Cc1ccc2c(c1)N(S(=O)(=O)c1cccc(C(F)(F)F)c1)CC(C(=O)O)O2 (stereo not given) | 0.3 | -1.8
C=CCn1c(Oc2ccccc2F)nc2c1c(=O)n(C)c(=O)n2C | 1.5 | 0.06
NS(=O)(=O)c1ccc(NC(=S)NC(=O)/C=C/c2cccs2)cc1 | 0.33 | 1.4
COc1ccc(NC(=O)CN(C)C(=O)c2cccc(S(=O)(=O)N3CCCc4ccccc43)c2)cc1 | 1.1 | 0.02
CCOC(=O)c1snc(-c2ccc(F)cc2)c1N | 3.2 | -1
Cc1nn(C)c(-c2n[nH]c(=S)n2-c2ccccc2)c1Cl | 1.1 | -1.5
CCC(O)C1CCN(Cc2cn(-c3ccc(OC)cc3)nc2-c2cccc(F)c2)CC1 (stereo not given) | 0.53 | -0.34
CN1CCCC(OC(=O)c2ccc3c(c2)OCCO3)C1 (stereo not given) | 0.61 | 0.89
CCCCn1c(-c2csc(CCC)c2)n[nH]c1=S | 9.1* | -0.95*
O=C1CN(C(=O)c2ccc(Cl)nc2)c2ccccc2N1 | 1.3 | 1.6
